miR-21 FLuc = qHTS Assay for Modulators of miRNAs and/orActivators of miR-21; AID 2288, 2010; HeLa miR-21 FLuc reporter, luciferase, 48 h; 340,000 tested, under 10 active; Potency, µM (doses to about 38.3 µM), without a hit: at the top dose reporter change, positive = more light; active = well fitted rising curve with a large enough effect; inconclusive = small, poorly fitted or top-dose-only effect; inactive = no such curve, though single readings can be large or run the other way;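 also: % of control where 0% means no effect; miR-21 action dims this reporter so a rising signal means less miR-21 action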
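HeLa cells stably expressing CMV-driven firefly luciferase with a downstream miR-21 binding sequence, endogenously expressing miR-21, were treated with titrations (up to about 40uM final) for 48 hours at 37 degree Celsius. Luciferase luminescence was read after lysis.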
Rango release inh = qHTS Assay for Inhibitors of RanGTP induced Rango (Ran-regulated importin-beta cargo) - Importin beta complex dissociation; Snurportin-1 (Homo sapiens) + GTP-binding nuclear protein Ran (Homo sapiens) + Importin …; Biochemical FRET Rango-importin beta, RanGTP-induced dissociation; Potency, µM (top dose mostly 46.1 µM), for the others: at the highest dose activity change, negative = inhibition; hit rate 0.071% among 340,000; active means falling FRET ratio curve, often poorly fitted, with flat reads before Ran was added; inconclusive means other falling curves, or compound fluorescence or quenching; inactive means flat or rising ratio curve;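 also: potency is read from the fitted curve at half-maximal effect; % of control where 0% means no effect; nearly all actives have a fitted effect of over 45% in size; -100% = wells without RanGTP and RCC1; the record marks most hits as doubtful in a second field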
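Quantitative HTS using a FRET biosensor: 0.1 uM Rango, 0.25 uM importin beta, 0.6 uM Ran, 2 mM GTP, 0.2 uM RCC1 final, PBS with DTT, Tween-20 and BSA. Post-read taken 45 min after Ran addition.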
Rango-impB inh = qHTS Assay for Inhibitors of Rango (Ran-regulated importin-beta cargo) - Importin beta complex formation; hit rate 0.031% among 340,000; Rango CFP/YFP FRET sensor + importin beta, 45 min; Importin subunit beta-1 (Homo sapiens), Q14974; AID 540263, 2011; Potency, µM (series often up to 92.2 µM), for the others: at the highest dose inhibition of complex formation; active = rising FRET ratio curve, often small or poorly fitted; inconclusive = mostly compound fluorescence or quenching in the first reads; inactive = flat curves in all reads;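 also: potency is read from the fitted curve at half-maximal effect; 0% = DMSO wells and 100% = buffer wells lacking importin beta; nearly all actives have a fitted effect of over 15% in size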
Target sequence (Q14974 whole entry, looked up): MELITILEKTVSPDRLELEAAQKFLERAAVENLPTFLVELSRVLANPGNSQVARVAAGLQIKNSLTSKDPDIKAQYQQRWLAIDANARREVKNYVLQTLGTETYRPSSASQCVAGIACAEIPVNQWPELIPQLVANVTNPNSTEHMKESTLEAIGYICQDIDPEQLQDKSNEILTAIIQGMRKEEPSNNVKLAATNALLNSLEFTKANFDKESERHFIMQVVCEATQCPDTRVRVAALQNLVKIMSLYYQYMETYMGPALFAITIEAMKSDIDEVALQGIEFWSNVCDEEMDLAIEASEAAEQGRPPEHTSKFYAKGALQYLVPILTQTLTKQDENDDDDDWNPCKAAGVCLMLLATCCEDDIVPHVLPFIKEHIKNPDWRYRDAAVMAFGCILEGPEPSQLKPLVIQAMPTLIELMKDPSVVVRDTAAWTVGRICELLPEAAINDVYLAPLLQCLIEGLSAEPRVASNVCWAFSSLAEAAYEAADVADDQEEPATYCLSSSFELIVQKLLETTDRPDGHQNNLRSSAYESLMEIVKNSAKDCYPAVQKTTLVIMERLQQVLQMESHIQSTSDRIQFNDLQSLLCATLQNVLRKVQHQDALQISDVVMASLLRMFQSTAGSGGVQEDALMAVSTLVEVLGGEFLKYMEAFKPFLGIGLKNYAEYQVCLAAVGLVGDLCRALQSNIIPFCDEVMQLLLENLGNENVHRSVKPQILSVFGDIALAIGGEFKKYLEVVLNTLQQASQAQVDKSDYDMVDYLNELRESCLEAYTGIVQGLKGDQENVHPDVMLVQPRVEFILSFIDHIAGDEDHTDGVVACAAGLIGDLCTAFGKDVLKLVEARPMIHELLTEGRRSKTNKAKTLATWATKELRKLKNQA
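FRET biosensor Rango (snurportin 1 IBB between N-terminal EYFP and C-terminal Cerulean), 50 nM in PBS/1 mM DTT/0.02% Tween-20/0.1% BSA, preincubated 5 min RT with compound; 0.125 microM importin beta added, 45 min RT, CFP/YFP FRET ratio read.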
GLA inh pH 4.5 = qHTS Assay for Inhibitors of Human alpha-Galactosidase at pH 4.5. purified enzyme, 4-MU-alpha-Gal fluorescence, pH 4.5. activity change, negative = inhibition, % at 105 µM. 230,000 tested, under 10 active. Alpha-galactosidase A (Homo sapiens), P06280; inconclusive = small, poorly fitted or top-dose-only inhibition, or a rising curve; inactive = flat fitted curve, though single readings scatter; no compound was filed as active;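 also: 0% = full activity with enzyme and -100% = basal without enzyme; dose as in the result columns while the protocol names 77 µM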
* marks the source's active call; other numbers are inactive results; ? = inconclusive; . = not tested or not shown; & = joins results of further samples. This is a subset; the hit share may differ from the screen's.

Below each SMILES: miR-21 FLuc	Rango release inh	Rango-impB inh	GLA inh pH 4.5
CCN(CC(=O)NCc1ccc(Cl)cc1)C(=O)C(C)Sc1ccccc1 (centres undefined)
    3%	21%	1.5%	.
O=Cc1ccccc1OS(=O)(=O)c1ccccc1
    -13%	8%	2.2%	-3
CC1=NN(c2ccccc2)C(=O)C1C(=O)c1cc([N+](=O)[O-])cc([N+](=O)[O-])c1 (centres undefined)
    -3%	-3%	2.3%	-4
COc1ccc(Cn2cc(F)c(=O)n(CCC(C)C)c2=O)cc1[N+](=O)[O-]
    -18%	4%	4.3%	0
COc1cc(S(=O)(=O)NCc2ccccn2)ccc1Cl
    -4%	4%	1.8%	.
Nc1cc2nn(-c3ccccc3)nc2cc1Cl
    -57%	-27%	?	5
O=Cc1ccc(-c2ccccc2OC(F)(F)F)o1
    -6%	-1%	1.5%	-8
CCOC(=O)c1ccc(Oc2c(C)oc3c(CN4CCN(C)CC4)c(O)ccc3c2=O)cc1
    -8%	4%	0.7%	-4
c1csc(-c2nnc3ccccn23)c1
    0%	3%	-0.8%	-7
NS(=O)(=O)c1ccc(NC(=S)NC2CC2)cc1
    -3%	2%	0.2%	9
CC(C)CN(C(=O)COC(=O)COc1ccc2c(c1)CCC2)c1c(N)n(Cc2ccccc2)c(=O)[nH]c1=O
    .	14%	4.1%	.
CCc1nn2c(=O)c(S(=O)(=O)Nc3ccc(C(C)C)cc3)c(C)nc2s1
    9%&6%	-11%	-1.9%	.
CCn1c(SCC(=O)Nc2nonc2C)nnc1-c1ccco1
    -7%	-9%	-0.3%	-5
COc1ccc(/C=N/NC(=O)c2nc(-c3ccccc3)n(-c3ccccc3)n2)cc1OC
    -11%	-11%	-1.4%	-10
O=C1c2ccccc2-c2c1c1ccccc1c(=O)n2CCO
    .	8%	3.2%	.
COc1ccc(S(=O)(=O)N2CCOCC2)cc1NC(=O)Cc1c(F)cccc1Cl
    .	-12%	-1.6%	.
CN1CCN(c2ccc(NC(=O)CSc3ccccc3)cc2F)CC1
    -43%	18%	-0.6%	-1
O=S(=O)(c1ccc(F)cc1)n1cnc2ccccc21
    -2%	-14%	1.4%	.
CCn1cc(Cl)c(C(=O)NNC(=O)CCn2ccc([N+](=O)[O-])n2)n1
    -2%	7%	0.0%	.
Cc1sc2ncnc(N/N=C/c3cccc(O)c3)c2c1C
    -65%	-8%	6.0%	-5
CC(C)Oc1ccc(S(=O)(=O)N2CCOCC2)cc1NC(=O)CN1C(=O)c2ccccc2C1=O
    .	-5%	0.2%	.
COc1cccc(CNC(=O)CSC(=S)N2CCCC2)c1
    .	33%	1.2%	.
CCN1C(=O)[C@H]2[C@@H](c3ccc(C)cc3)N3C(=O)N(c4ccc(C)cc4)C(=O)[C@@]3(CC)[C@H]2C1=O
    .	-6%	-0.6%	.
C(=N\Nc1nc2ccccc2s1)/c1ccccn1
    ?	16%	0.5%	2
COc1ccc(NC(=O)CN2CCCCCC2)cc1OC
    1%	-9%	-4.4%	.
Clc1ccc(-n2nnnc2CN2CCCCC2)cc1Cl
    -1%	-6%	-1.0%	1
COc1ccc([N+](=O)[O-])cc1-c1nc2ccccc2nc1-c1ccccc1
    -5%	-15%	-0.2%	.
O=C(CSc1nc(O)cc(=O)[nH]1)Nc1ccc2c(c1)CCC2
    -1%	-1%	?	-1
COC(=O)CCc1nc2ccccc2[nH]c1=O
    2%	0%	-2.9%	2
Cc1ccc(-n2c(Cl)c(Cl)[nH]c(=O)c2=O)cc1
    -5%	1%	0.3%	19
CC#CCN1c2ccccc2[C@]23C[C@@H](C(=O)OC)N(C(=O)c4cc(C)oc4C)C2=NC(C(=O)OC)=C(C(=O)OC)[C@H]13
    ?	19%	5.5%	14&-8
Cc1ccc(S(=O)(=O)CC(=O)Nc2nccs2)cc1
    .	-4%	-3.3%	.
CCOc1ccccc1OCCCC(=O)N1CCN(S(=O)(=O)c2ccc(C)cc2C)CC1
    .	0%	-1.7%	.
C=CCNC(=S)N1CCN(c2ncc(C(F)(F)F)cc2Cl)CC1
    13%	-8%	-0.7%	-3
CC(C)(CO)CNC(=O)CCc1nnc(Cc2ccc(-c3ccccc3)cc2)o1
    -1%	4%	7.6%	13
Cc1ccc(NC(=O)c2ccc3c(c2)NC(=O)CS3)nc1
    .	-17%	-4.1%	.
COc1cccc(-c2cc(C(F)(F)F)nc(-n3cccn3)n2)c1
    0%	1%	-1.3%	1
Cc1cc(C(=O)NCCN2CCCCC2C)n(-c2ccccc2)n1 (centres undefined)
    -10%	-13%	-6.9%	-19
COc1ccc(N(C)C(=S)Oc2ccc(C(=O)Nc3ccccc3)cc2)cc1
    13%	.	.	-2
Cc1cccc(/C=C/c2nc3ccccc3c(=O)n2Cc2ccccc2)c1
    -1%	1%	-0.5%	-8
Clc1ccccc1Cn1nnc2c(N3CCCC3)ncnc21
    -4%	-5%	-3.6%	1
COc1ccc(-c2cc(C(=O)Nc3cccnc3)no2)cc1OC
    -47%&-58%	-9%	0.1%	.
NC1=C([N+](=O)[O-])C(c2ccc(F)cc2)C2=C(CCCC2=O)O1 (centres undefined)
    -3%	11%	0.2%	-3
CCC(C(=O)OC(C)C)c1ccc2ccccc2c1 (centres undefined)
    .	6%	-1.3%	.
COc1ccc(-c2cc(C(=O)NCCCN3CCCC3=O)c3ccccc3n2)cc1
    .	?	4.1%	.
Nc1cc2c(cc1C(=O)c1ccccc1)OCCO2
    -12%	-8%	4.0%	-2
CN(C)S(=O)(=O)c1ccc(C(=O)Nc2nc3ccccc3[nH]2)cc1
    -49%	1%	-1.7%	-1
COCCCN(C(=S)Nc1c(C)cc(C)cc1C)C(C)c1ccncc1 (centres undefined)
    -2%	-1%	4.0%	-5
CCCN(CC(=O)Nc1cc(Cl)ccc1Cl)C(=O)c1ccc2n[nH]nc2c1
    .	-7%	1.2%	.
CC(=O)Oc1ccc2c(=O)c(N3C(=O)c4ccccc4C3=O)c(C)oc2c1C
    -2%	6%	-2.1%	8
CCCn1c(Nc2cccc(OC)c2)nc2ccccc21
    -3%	14%	-1.2%	.
CN(Cc1cnn(C)c1)S(=O)(=O)c1cccc([N+](=O)[O-])c1
    1%	-13%	0.1%	3
COc1ccccc1N1CCN(C(=O)CSc2nnc3c4ccccc4n(CC(=O)O)c3n2)CC1
    -4%	0%	?	-4
CC(=O)c1cccc(NC(=O)C2CCN(C(=O)c3ccccc3Cl)CC2)c1
    0%	-55%	1.0%	.
O=C(Nc1ccc(C(=O)O)cc1)/C(=C\C=C\c1ccccc1)NC(=O)c1ccccc1Cl
    -1%	-3%	-2.3%	.
N#CCc1nnc2n1-c1ccccc1CCC2
    -5%	0%	1.2%	-14
c1ccc(Nc2nnc(-c3cccnc3)s2)cc1
    -60%	9%	-0.3%	.
COCCNC(=S)N(CCc1c(C)[nH]c2ccc(Cl)cc12)Cc1cccnc1
    7%	-11%	-2.8%	.
O=C(Cn1nnc2ccccc2c1=O)NCCc1ccccc1
    -8%	-10%	2.7%	2
N#CC1=C(N)OC2=C(C(=O)CCC2)C12C(=O)N1CCCc3cccc2c31 (centres undefined)
    0%	11%	0.4%	0

Other compounds follow:
Below each SMILES: miR-21 FLuc	Rango release inh	Rango-impB inh	GLA inh pH 4.5
O=C(NNC(=O)c1ccc([N+](=O)[O-])cc1)NC1CCCCC1
    -7%	47%	0.3%	-10
O=C(COC(=O)/C=C/c1cccs1)Nc1ccc2ccccc2c1
    -4%	8%	3.3%	0
COC(=O)c1sc2nc(C)nc(SCC(=O)C(C)(C)C)c2c1C
    2%	-1%	0.6%	-10
COc1cc(/C=C/C(=O)OCC(=O)NCc2ccco2)ccc1O
    .	?	-3.5%	.
O=[N+]([O-])c1ccc(/C=N/Nc2nc(NCc3ccccc3)nc(N3CCOCC3)n2)cc1
    -9%	-12%	2.8%	-17
Cc1cccc2cc(CN(Cc3ccco3)C(=O)N3CCCC3)c(=O)[nH]c12
    1%	.	.	-5
CCN(Cc1ccncc1)C(=O)CCc1nnc(CCc2ccccc2OC)o1
    -2%	-12%	5.5%	4
COc1ccc2cc3cc(C(=O)N4CC(C)CC(C)C4)oc3nc2c1 (centres undefined)
    -27%	0%	0.5%	.
O=C(NC(=S)Nc1ccccn1)c1cncc(Br)c1
    -28%	4%	-1.4%	-13
CCOC(=O)Cn1c(=O)n(Cc2ccccc2)c(=O)c2cccnc21
    -8%	3%	5.6%	.
CN(Cc1cccnc1)Cc1cn[nH]c1-c1ccc(-c2ccccc2)cc1
    -28%	8%	3.0%	-16
COc1ccccc1C(=O)NNC(=O)c1ccc(C)cc1
    -30%	8%	-0.1%	.
CCn1c(=O)n(CC)c2cc(N3CCCC3)c(NC(=O)c3cccc(Cl)c3)cc21
    9%	?	-0.3%	.
CC(C)c1nc(SCC(=O)Nc2nc3c(s2)CCCC3)c2ccccc2n1
    22%	?	0.3%	-15
C[C@H]1CN=C(N(C)C)N1CCc1ccc(F)cc1
    .	-2%	-3.4%	.
COc1ccc(S(=O)(=O)N2CCC(C(=O)NCCCc3ccccc3)CC2)cc1
    1%	-5%	0.2%	.
COc1ccc(CN2C(=O)CN=C2Nc2cccc(C)c2C)cc1
    -4%	9%	2.4%	1
CC(=O)c1ccc(NS(=O)(=O)c2ccc([N+](=O)[O-])cc2)cc1
    .	-1%	-1.5%	.
CC(C)CNC(=O)C1CCN(Cc2ccc(OCc3ccccc3)cc2)CC1
    -31%	14%	3.8%	-6
S=c1[nH]c2cnc(Cl)nc2[nH]1
    .	0%	5.3%	.

Single records, as listed above.
CC(=O)c1ccc(NS(=O)(=O)c2ccc([N+](=O)[O-])cc2)cc1 is listed as miR-21 FLuc = .; Rango release inh = -1%; Rango-impB inh = -1.5%; GLA inh pH 4.5 = .
CC(C)c1nc(SCC(=O)Nc2nc3c(s2)CCCC3)c2ccccc2n1 is listed as miR-21 FLuc = 22%; Rango release inh = ?; Rango-impB inh = 0.3%; GLA inh pH 4.5 = -15

The listing continues.
Below each SMILES: miR-21 FLuc	Rango release inh	Rango-impB inh	GLA inh pH 4.5
COc1cc(/C=C/C(=O)c2cccc([N+](=O)[O-])c2)cc(OC)c1OC
    ?	-12%	5.9%	-7
Cc1cc(NC(=O)COn2nnc3ccc(S(C)(=O)=O)cc32)ccc1Br
    13%	-8%	6.4%	6
O=[N+]([O-])c1ccc(O)c(Nc2c([N+](=O)[O-])ccc3nonc23)c1
    8%	9%	0.6%	.
CCOc1ccc(-c2cn3ccccc3n2)cc1[N+](=O)[O-]
    -80%	-11%	-0.9%	-4
Cc1ccc(S(=O)(=O)N2CCCCC2)cc1C(=O)N(CCc1ccccc1)Cc1ccccc1
    .	?	-0.7%	.
COC(=O)N1CCCc2cc(C)ccc21
    -1%	1%	2.5%	1
COc1cccc(C2CC(c3ccccc3)Nc3ncnn32)c1 (centres undefined)
    -7%	-2%	0.0%	-7
Cc1cc(=O)n2nc(N3CCC(C(=O)Nc4cccc(Cl)c4C)CC3)sc2n1
    0%	-4%	-3.0%	.
O=C(CN(C(=O)CNC(=O)c1cccs1)c1ccccc1F)NC1CCCC1
    -2%	-16%	-0.8%	.
Cc1ccc(-c2nc(Nc3cccc(O)c3)c3ccccc3n2)cc1
    1%	0%	-1.3%	.
CN(C(=O)CSc1nnc(CN2CCCC2)n1Cc1ccccc1)c1ccccc1
    .	-3%	-3.5%	.
